# UUG fidelity: modulators of start codon recognition fidelity in yeast | S. cerevisiae UUG-firefly luciferase reporter, luminescence/redox ratio | activity score, % at 18.7 µM | 350,000 compounds, 0.13% hits | AID 602363;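 active = replicate mean at a twofold rise or more, about +100% in these data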;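 note: firefly luciferase made from a UUG start codon reports start codon fidelity; reporter light over untreated wells divided by growth signal over untreated wells; some hits fall short of that in this replicate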
# CSC inhib: cancer stem cell inhibition; cancer stem cell-like cells viability, luminescence; inhibition, % at 7.5 µM; 300,000 compounds, 1.1% hits; AID 2717;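 active = mean at 75% or more and at least half the replicates too; inconclusive = mean and replicates disagree; tested in HMLE shEcad cells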;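 note: 0% = median of negative and 100% = median of positive control wells; the first replicate is given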
# Rce1 inh: inhibitors of yeast Ras-converting enzyme; 290,000 compounds, 0.27% hits; calls only; AID 2563; Q03530; yeast membranes, quenched prenylated peptide cleavage fluorescence;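 active = fall in fluorescence gain of 50% or more versus controls, with final raw signal at or below 3038400; inconclusive = same 50% fall but final raw signal above 3038400; inactive = fall in fluorescence gain under 50%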;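 note: plate controls were neutral control wells for no effect and wells lacking membranes for full effect; tested at 10 µM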
# Target sequence (Q03530 whole entry, looked up): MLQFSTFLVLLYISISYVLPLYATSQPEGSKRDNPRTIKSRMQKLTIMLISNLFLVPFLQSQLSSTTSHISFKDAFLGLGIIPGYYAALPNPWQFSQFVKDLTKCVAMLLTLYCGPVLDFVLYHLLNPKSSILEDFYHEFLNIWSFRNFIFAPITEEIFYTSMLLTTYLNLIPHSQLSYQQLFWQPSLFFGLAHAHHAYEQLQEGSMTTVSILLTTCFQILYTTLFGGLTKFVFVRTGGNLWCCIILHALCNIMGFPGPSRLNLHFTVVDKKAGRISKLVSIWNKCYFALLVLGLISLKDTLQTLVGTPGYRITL
# PABP FP inh: PABP-poly(A) binding inhibition | P11940 | PABP-poly(A) RNA binding, fluorescence polarization | inhibition, % at 35 µM | 290,000 compounds, 1% hits;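 active = 50% or more with normal probe brightness, or confirmed in later tests; inconclusive = above 50% with abnormal brightness, or retests that disagree; inactive = below 50% or failed in later tests; about a fifth of its hits are not listed in these tables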;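 note: calls also rest on retests at 20 µM and on dose response follow-up; controls were probe without protein and protein plus probe with vehicle; some compounds called inactive have numbers as strong as hits; many hits fall short of the cut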
# Target sequence (P11940 whole entry, looked up): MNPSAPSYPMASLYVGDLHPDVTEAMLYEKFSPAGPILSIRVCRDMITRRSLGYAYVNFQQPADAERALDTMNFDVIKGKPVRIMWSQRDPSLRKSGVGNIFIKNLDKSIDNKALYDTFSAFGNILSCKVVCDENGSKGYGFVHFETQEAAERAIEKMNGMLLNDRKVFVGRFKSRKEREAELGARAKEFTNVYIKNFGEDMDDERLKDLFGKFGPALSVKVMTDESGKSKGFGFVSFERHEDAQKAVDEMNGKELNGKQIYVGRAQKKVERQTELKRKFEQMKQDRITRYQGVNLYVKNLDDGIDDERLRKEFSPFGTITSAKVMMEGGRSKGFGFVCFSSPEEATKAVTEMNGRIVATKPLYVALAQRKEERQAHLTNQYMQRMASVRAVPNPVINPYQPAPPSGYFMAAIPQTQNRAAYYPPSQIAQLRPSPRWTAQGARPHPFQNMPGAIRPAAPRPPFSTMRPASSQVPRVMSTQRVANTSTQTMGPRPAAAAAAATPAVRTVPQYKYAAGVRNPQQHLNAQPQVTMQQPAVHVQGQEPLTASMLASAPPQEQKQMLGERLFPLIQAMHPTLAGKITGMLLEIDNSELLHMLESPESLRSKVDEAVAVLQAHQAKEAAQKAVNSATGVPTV
# MT1-MMP act inh: blocks activation of human MT1-MMP; AID 651647; GFP/RFP ratio change, % at 20 µM; P50281; HT1080 RFP-PRO-GFP cells, GFP/RFP ratio fluorescence, overnight; percent of plate control window, DMSO zero; 360,000 compounds, 0.061% hits;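 active = GFP/RFP ratio change of at least 30% with cell ATP level not reduced by more than half and red fluorescence within 50% of control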; note: strong numbers were not always called active
#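 Assay system: HT1080 RFP-PRO-GFP cells | Dosing: 20 µM single dose, 1% DMSO | Incubation: Cells overnight before dosing, compound overnight, 37 °C, 5% CO2 | Evaluation: GFP/RFP fluorescence ratio | Control set: DMSO-only wells and HT1080 RFP-L50D-GFP cell wells as references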
# eIF4H FP inh: inhibitors of RNA binding by human eIF4H | inhibition, % at 35 µM | Q15056 | 290,000 compounds, 0.94% hits | AID 2012 | eIF4H fluorescence polarization binding assay;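 active = 50% or more with normal probe brightness, or confirmed in later tests; inconclusive = above 50% with abnormal brightness, or retests that disagree; inactive = below 50% or failed in later tests; about a fifth of its hits are not listed in these tables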;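 note: calls also rest on retests at 20 µM and on dose response follow-up; 0% = protein and probe with vehicle and 100% = probe without protein; strong numbers were not always called active; many hits fall short of the cut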
# Env fusion inh: inhibitors of HIV Env-mediated cell fusion. HeLa-JRFL Env/CEM21 cell fusion, luciferase. 360,000 compounds, 1.1% hits. inhibition, % at 12.3 µM;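 active = mean replicate inhibition score of at least 50 and every replicate individually at or above 50; inconclusive = only one of the two criteria met; inactive = mean below 50 and not all replicates reaching 50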;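 note: 0% = plate neutral controls and 100% = maraviroc near 300 nM; one replicate is shown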
# eIF4H FP inh retest: also measured in eIF4H FP inh; calls as there; inhibition, %; compound at 20 µM; confirmation average;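 mean of two retest wells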
# PABP FP inh retest: also measured in PABP FP inh; calls as there; inhibition, %; compound at 20 µM; confirmation repeats;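 mean of two retest wells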
# MT1-MMP act inh RFP: second read-out of MT1-MMP act inh, no call of its own (marks repeat the call); RFP signal change, %; measured here: RFP expression control read;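 0 = vehicle wells; hits needed this value within 50% of zero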
# Active calls of the source: *; i = inactive; ? = inconclusive; / = no result given.
SMILES,UUG fidelity,CSC inhib,Rce1 inh,PABP FP inh,MT1-MMP act inh,MT1-MMP act inh RFP,eIF4H FP inh,Env fusion inh,others
CCN(CCCNC(=O)C1CCN(C(=O)c2cc3sccc3n2C)CC1)Cc1ccccc1,-9,-3,i,11,2,-2,-2,-6,
CCOC(=O)Nc1cccc(OCC(=O)Nc2ccc(OC)cc2OC)c1,-1,-20,i,/,16,-7,/,18,
O=S(=O)(c1ccccc1)N1CCN(c2nnnn2-c2ccccc2)CC1,-12,13,i,-3,6,1,-2,0,
NC(=O)c1ccccc1Br,-12,-16,i,-1,-1,-4,-16,-6,
O=C(Nc1ccc(N2CCN(C(=O)c3ccccc3F)CC2)cc1)c1cncc(Br)c1,-3,6,i,-21,-4,-15,-8,-49,
Cc1cc(C)cc(N(CCC(=O)Nc2nnc(C)s2)S(=O)(=O)c2ccc(Cl)cc2)c1,/,15,i,13,-8,-7,-11,/,
CSCC[C@H](NC(=O)C1CCN(C(=O)[C@H](Cc2ccccc2)NS(=O)(=O)c2ccc(C)cc2)CC1)C(=O)O,3,-11,i,0,2,1,9,11,
COC(=O)c1cc(S(=O)(=O)N2CCN(c3ccccc3)CC2)c[nH]1,-3,-5,i,-2,-6,-4,26,-10,
CCCCn1c(C(C)NC(=O)CC)nc2ccccc21 (stereo unspecified),-13,-4,i,7,0,4,-2,1,
COc1ccccc1NC(=O)C1CCCN(C(=O)Nc2ccc(F)cc2)C1 (stereo unspecified),4,/,i,-1,-1,2,3,6,
Nc1ccccc1SSc1ccccc1N,-18,-2,i,9,-5,-1,-5,-13,
CC(C)OC(=O)c1cccnc1N1CCN(c2ccc(F)cc2)CC1,11,7,i,5,-2,-6,-2,-3,
Cc1[nH]c(=O)sc1C(=O)NCc1ccc([N+](=O)[O-])cc1,-14,/,/,/,4,1,/,-1,
Cn1c2ccccc2c(=O)c2c(=O)n(Cc3ccccc3)c(-c3ccc(F)cc3)nc21,/,-14,i,4,-1,-3,5,22,
COc1ccc(S(=O)(=O)Nc2cc(C)on2)cc1OC,-7,-7,i,4,4,8,5,/,
O=C(CSc1ccc(-c2ccco2)nn1)NC1CCCC1,/,-2,i,-8,-1,0,30,-8,
CCOC(=O)COc1cc([N+](=O)[O-])cc2cccnc12,-16,-1,i,0,2,6,8,8,
Cc1oc(-c2ccccc2Cl)nc1CS(=O)CC(=O)NCc1ccco1 (stereo unspecified),-7,-3,i,6,-5,-2,-6,-2,
CCOCCCN(C(=O)Nc1ccc(CC)cc1)C1CCN(C(C)=O)CC1,-5,-15,i,-7,3,0,-8,/,
Cc1ccc(C)c(Nc2c([N+](=O)[O-])c(=O)oc3ccccc23)c1,-7,29,i,3,-1,-3,-5,2,
CC(=O)c1ccc(NC(=O)c2ccc3c(c2)C(=O)N(c2ccccn2)C3=O)cc1,16,11,i,6,1,4,-1,-2,
O=C(CCc1nnc(-c2ccsc2)o1)N1CCc2c(Cl)cccc2C1,6,1,i,-1,-2,5,2,-28,
CCN(CC)C(=O)CN1CCN(c2ccccc2F)CC1,-10,/,i,-12,5,3,-11,-39,
COc1ccc(N(C(=O)c2snc(C(N)=O)c2N)C(C(=O)NC2CCCC2)c2cc(OC)ccc2OC)c(OC)c1 (stereo unspecified),-19,11,i,-6,-6,-2,2,2,
O=C1C=CC(=O)N1N(c1ccccc1)c1ccccc1,-13,64,i,62,2,5,-6,-19,eIF4H FP inh retest=-3;PABP FP inh retest=4

# Sorted by heavy-atom count (highest first): three of the compounds above.
SMILES,UUG fidelity,CSC inhib,Rce1 inh,PABP FP inh,MT1-MMP act inh,MT1-MMP act inh RFP,eIF4H FP inh,Env fusion inh,others
CCN(CC)C(=O)CN1CCN(c2ccccc2F)CC1,-10,/,i,-12,5,3,-11,-39,
O=C1C=CC(=O)N1N(c1ccccc1)c1ccccc1,-13,64,i,62,2,5,-6,-19,eIF4H FP inh retest=-3;PABP FP inh retest=4
Nc1ccccc1SSc1ccccc1N,-18,-2,i,9,-5,-1,-5,-13,

# New compounds follow:
SMILES,UUG fidelity,CSC inhib,Rce1 inh,PABP FP inh,MT1-MMP act inh,MT1-MMP act inh RFP,eIF4H FP inh,Env fusion inh,others
CS(=O)(=O)c1ccc(-c2nnc(NC(=O)c3cccc(N4C(=O)CCC4=O)c3)o2)cc1,/,-7,i,/,2,13,/,-12,
Cc1oc2cc3c(C(=O)N4CCCCC4)c(C)oc3cc2c1C(=O)N1CCCCC1,-45,2,i,4,8,-5,-11,/,
O=[N+]([O-])c1ccc(Sc2nnnn2-c2ccccc2)nc1,/,/,i,-7,/,/,-3,-62,
Cc1ccccc1NC(=O)C(C)OC(=O)CCC(=O)c1ccccc1 (stereo unspecified),-3,/,/,/,-3,2,/,-3,
O=C(Nc1ccccc1)NC1CCCCNC1=O (stereo unspecified),-3,-9,i,2,-3,1,-1,5,
O=C(NCc1ccc(F)cc1)c1cc(C2CCCCN2S(=O)(=O)c2cccc3cccnc23)on1 (stereo unspecified),-9,/,/,/,2,-11,/,5,
O=C(NCCCNC(=O)c1cc(Cl)ccc1Cl)c1ccccn1,/,14,i,-5,2,5,-18,-2,
Cc1nc2cc(C(=O)NCc3ccc4c(c3)OCO4)ccc2n1-c1ccc(Br)cc1,/,20,i,-9,-2,-1,-3,16,
CCCOc1ccc2oc(=O)c3c(c2c1)CCCN3C(=O)CN1CCc2ccccc2C1,8,15,i,3,-3,-8,7,/,
COc1ccc2nc(N3CCCC3)c(C#N)cc2c1,-12,-3,i,?,-11,4,?,-105,
Nc1nc(CSc2ncn[nH]2)nc(Nc2ccc(F)cc2)n1,/,/,i,3,2,5,-8,-69,
Cc1ccc(S(=O)(=O)N(CC(=O)Nc2ccc(C)cc2C)C(=O)N2CCN(C)CC2)cc1,-4,/,i,/,-1,4,/,10,
CS(=O)(=O)c1ccc(Cl)c(NC(=O)CCN2C(=O)NC3(CCCC3)C2=O)c1,/,8,/,/,-2,0,/,6,
CNc1nnc(C(F)(F)F)s1,/,-2,i,13,1,-1,20,-4,
COc1ccc(CCNC(=O)c2c(Cl)ccc(Cl)c2OC)cc1OC,-22,0,/,-4,-1,1,-8,1,
COc1cccc(/C=C/C(=O)OCC(=O)NCc2ccco2)c1,-13,22,i,-3,2,4,-7,-23,
Cc1ccc(NC(=O)CN2CCN(CCN=CC3=C(O)CC(c4ccccc4)CC3=O)CC2)cc1 (stereo unspecified),/,1,i,6,2,6,-4,-12,
CCOCCOC(=O)c1[nH]c2c(c1C)C(=O)CC(c1cc(OC)c(OC)c(OC)c1)C2 (stereo unspecified),4,-17,i,4,6,-20,-7,17,
CCCNC(=O)N1CCN(S(=O)(=O)c2ccc(C)cc2)CC1,-15,-12,i,14,4,2,-2,-67,
CCn1c(SCC(=O)NC2CCCCC2)nc2c(c1=O)SCC2,-19,-19,i,6,3,2,-5,/,
COc1ccc(OC)c(NC(=O)CCNS(=O)(=O)c2cccc3nonc23)c1,-9,-2,i,-1,-2,3,-8,5,
CCOc1ccc(-c2c(C(=O)N/N=C/c3cccnc3)nnn2-c2nonc2N)cc1,-14,-19,i,0,-1,2,15,-7,
CCc1nnc(N2C(=O)c3cccc4cccc(c34)C2=O)s1,/,-1,i,-6,0,1,40,/,
CC1CCN(Cc2cnc(Cl)s2)CC1,30,0,i,-7,9,2,2,/,
Cc1cc(C(=O)OCC(=O)NCc2cccs2)ccc1[N+](=O)[O-],-14,/,/,/,0,-1,/,12,
Cc1onc(-c2ccccc2Cl)c1C(=O)N(Cc1ccc(N(C)C)cc1)C(C)C,-1,22,i,/,/,/,/,29,

# Ordered by molar mass (smallest number first): some entries from above.
SMILES,UUG fidelity,CSC inhib,Rce1 inh,PABP FP inh,MT1-MMP act inh,MT1-MMP act inh RFP,eIF4H FP inh,Env fusion inh,others
CNc1nnc(C(F)(F)F)s1,/,-2,i,13,1,-1,20,-4,
O=C(Nc1ccccc1)NC1CCCCNC1=O (stereo unspecified),-3,-9,i,2,-3,1,-1,5,
O=[N+]([O-])c1ccc(Sc2nnnn2-c2ccccc2)nc1,/,/,i,-7,/,/,-3,-62,
CCc1nnc(N2C(=O)c3cccc4cccc(c34)C2=O)s1,/,-1,i,-6,0,1,40,/,
CCCNC(=O)N1CCN(S(=O)(=O)c2ccc(C)cc2)CC1,-15,-12,i,14,4,2,-2,-67,
Cc1ccccc1NC(=O)C(C)OC(=O)CCC(=O)c1ccccc1 (stereo unspecified),-3,/,/,/,-3,2,/,-3,
O=C(NCCCNC(=O)c1cc(Cl)ccc1Cl)c1ccccn1,/,14,i,-5,2,5,-18,-2,
CCn1c(SCC(=O)NC2CCCCC2)nc2c(c1=O)SCC2,-19,-19,i,6,3,2,-5,/,
COc1ccc(CCNC(=O)c2c(Cl)ccc(Cl)c2OC)cc1OC,-22,0,/,-4,-1,1,-8,1,
COc1ccc(OC)c(NC(=O)CCNS(=O)(=O)c2cccc3nonc23)c1,-9,-2,i,-1,-2,3,-8,5,
CCOCCOC(=O)c1[nH]c2c(c1C)C(=O)CC(c1cc(OC)c(OC)c(OC)c1)C2 (stereo unspecified),4,-17,i,4,6,-20,-7,17,
CS(=O)(=O)c1ccc(-c2nnc(NC(=O)c3cccc(N4C(=O)CCC4=O)c3)o2)cc1,/,-7,i,/,2,13,/,-12,
Cc1ccc(S(=O)(=O)N(CC(=O)Nc2ccc(C)cc2C)C(=O)N2CCN(C)CC2)cc1,-4,/,i,/,-1,4,/,10,
Cc1nc2cc(C(=O)NCc3ccc4c(c3)OCO4)ccc2n1-c1ccc(Br)cc1,/,20,i,-9,-2,-1,-3,16,
